Screening results from PubChem.
VDR inhibitor: blocks the human vitamin D receptor; Potency, µM, without a hit: max response, negative = inhibition, hits mostly inhibitors; 0.93% of 400,000 active; VDR-SRC2-3 peptide fluorescence polarization, 2 h; AID 504847; P11473; active = well fitted inhibition curve with a large enough effect; inconclusive = small, poorly fitted or top-dose-only effect, or another doubt; inactive = no such curve, though single readings can be large or run the other way; also: series mostly up to about 120 µM
Target sequence (P11473 whole entry, looked up): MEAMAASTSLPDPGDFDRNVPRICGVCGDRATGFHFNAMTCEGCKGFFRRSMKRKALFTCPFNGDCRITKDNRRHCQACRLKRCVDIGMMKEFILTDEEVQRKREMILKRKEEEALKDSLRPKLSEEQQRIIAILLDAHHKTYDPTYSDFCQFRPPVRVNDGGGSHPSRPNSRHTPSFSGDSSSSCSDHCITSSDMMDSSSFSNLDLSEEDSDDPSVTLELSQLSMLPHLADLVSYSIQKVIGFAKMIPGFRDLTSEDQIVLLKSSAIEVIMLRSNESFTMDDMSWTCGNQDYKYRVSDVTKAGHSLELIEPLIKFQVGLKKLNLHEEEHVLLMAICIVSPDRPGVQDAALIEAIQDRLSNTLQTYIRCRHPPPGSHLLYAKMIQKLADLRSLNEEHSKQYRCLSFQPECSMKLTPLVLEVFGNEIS
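Reagent solutions, kept cold and dark, are dispensed first; compounds are then pinned in at 23 nl, plates briefly spun, and incubated 2 h at ambient temperature. Inhibition of VDR–SRC2-3 peptide binding is read by fluorescence polarization.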
* = called active by the depositor; ? = inconclusive; & = joins results of further samples; ! = not active in a repeat. % is scaled to controls: 0 for no effect and ±100 for the full control effect; potency is read from the fitted curve at half-maximal effect. An excerpt; rates above refer to the full screens.

Compound,VDR inhibitor
Cn1c(SCC(=O)c2ccc3c(c2)Cc2ccccc2-3)nnc1-c1ccccc1,-17%
COc1ccc(CCNC(=O)c2c(Nc3ccccc3C)sc(C(=O)c3ccccc3)c2N)cc1OC,-3%
CC(NC(=O)c1ccccc1Br)c1ccc2c(c1)CCCC2 (stereo not drawn),14%
CCOC(=O)c1cc(-c2ccccc2)n(CCCC(=O)Nc2ccc(C)cc2Cl)c1C,6%
CCOC(=O)C1CCN(S(=O)(=O)c2cn(C)c(C)n2)CC1,2%
Cn1c(=O)c2c(nc(SCC(=O)N3c4ccccc4CCc4ccccc43)n2C)n(C)c1=O,8%
O=c1cc2c(nn1Cc1ccc(F)cc1)-c1ccccc1CC2,-11%
CCCCOc1ccc(N2CC(C(=O)NCc3ccco3)CC2=O)cc1 (stereo not drawn),-7%
Cc1ccc(CN2CCNC(=O)C2CC(=O)N(C)C2CCOCC2)cc1 (stereo not drawn),-14%
O=C(O)C1CCN(C(=O)Cc2ccccc2)CC1,9%
C/C(=N\NC(=O)CCC(=O)Nc1ccccc1)c1cccs1,0%
CN(C)S(=O)(=O)c1ccc(C(=O)N2CCC(c3nc4ccccc4o3)CC2)cc1,6%
CC1=CN2C(=NC(=O)CC2(C)C(=O)N(CC(=O)NC2CCCC2)c2ccccc2C)C=C1 (stereo not drawn),10%
COc1ccc(NC(=O)N2CCCC3(CCN(C(=O)c4cc(C(F)(F)F)cc(C(F)(F)F)c4)CC3)C2)cc1,-3%
CCN(CC)C(=O)CN1C(=O)COc2ccc(S(=O)(=O)N3CCOCC3)cc21,-13%
O=C(Cc1ccccc1)N[C@@H]1c2ccccc2CC[C@@H]1OCc1ccccc1,-37%
COc1ccc(CC(=O)Nc2cccc(-c3nnc(-c4cccc(C)c4)o3)c2)cc1OC,1%
CCCCn1c(N)c(N(CCC(C)C)C(=O)c2cc(S(=O)(=O)N3CCOCC3)ccc2F)c(=O)[nH]c1=O,-4%
Cc1ccccc1Cn1c(COc2ccc(Cl)cc2)nc2ccccc21,2%
O=C(COC(=O)c1ccccc1SCC(=O)N1CCCC1)Nc1ccccc1OC(F)F,8%
Cc1cccc(C(=O)n2nc(-c3cccnc3)nc2NCc2ccc(F)cc2)c1,1%
O=c1c2c(O)cc(O)cc2oc2c(O)ccc(O[C@H]3O[C@@H](CO)[C@H](O)[C@@H](O)[C@@H]3O)c12,-14%
COc1cc(/C=C/C(=O)NNc2c(F)c(F)cc(F)c2F)ccc1OC(F)F,-2%
COc1cc2c(cc1OC)C(c1ccccc1C)CC(=O)N2 (stereo not drawn),9%
Cc1ccc(NC(=O)CSc2ncccn2)cc1S(=O)(=O)N1CCCCC1,-9%
CCC(=O)N1CCc2cc(S(=O)(=O)N3CCc4ccccc43)ccc21,11%
O=C(Nc1cccnc1Cl)c1ccc(Cl)cc1,-3%
CCOc1ccc(NC(=O)Cn2c(=O)c(CNc3ccc(CC)cc3)cc3cc4c(cc32)OCO4)cc1,5%
Cc1c(C(=O)N2CCCCC2)sc(NC(=O)c2ccco2)c1C#N,15%
COc1ccccc1CNC(=O)N1CCN(S(=O)(=O)c2ccc(C)cc2)CC1,1%

Some of these compounds in order of their number in VDR inhibitor, low to high:
Compound,VDR inhibitor
CCCCOc1ccc(N2CC(C(=O)NCc3ccco3)CC2=O)cc1 (stereo not drawn),-7%
O=C(Nc1cccnc1Cl)c1ccc(Cl)cc1,-3%
O=C(O)C1CCN(C(=O)Cc2ccccc2)CC1,9%

Further compounds
Compound,VDR inhibitor
COc1ccc([C@H]2CC(=O)C=C(c3cccc4c3Oc3ccccc3S4)C2)cc1OC,4%
CCOCCCNC(=O)C(c1ccc(Cl)cc1)N(Cc1ccc2c(c1)OCO2)C(=O)CNC(C)=O (stereo not drawn),-1%
CCOC(=O)C1=C(CS(=O)(=O)c2ccc(C(C)(C)C)cc2)NC(=O)NC1c1cccc(OC)c1 (stereo not drawn),-22%
O=C(/C=C/C#Cc1cccc(NS(=O)(=O)c2ccccc2)c1)NO,-18%
Cc1ccc(COC(=O)c2[nH]c3c(c2C)C(=O)CC(c2ccc(Cl)cc2)C3)cc1 (stereo not drawn),-20%
O=C1[C@@H]2Cc3c([nH]c4ccccc34)CN2C(=O)CN1CCCCCO,14%
Cc1nn(C)c(C)c1NC(=O)CSc1nc(-c2ccccc2Cl)nc2c1cnn2-c1ccccc1,7%
Cc1ccc(C)c(S(=O)(=O)Nc2ccc(C(=O)N3CCC3)cc2)c1,-4%
O=C(NNS(=O)(=O)c1ccc(C(F)(F)F)cc1)c1cnn(-c2ccccc2)c1C(F)(F)F,3%
CC(=O)N1CCN(c2ccc(S(=O)(=O)N3CCCCC3)cn2)CC1,32%
Nn1cnc2c([nH]c3ccccc32)c1=O,-1%
COc1ccc(Oc2ncc3nc(-c4ccc(F)cc4)c(=O)n(Cc4cccs4)c3n2)cc1,-7%
O=[N+]([O-])c1ccc(Nc2nccc(Cl)n2)cc1,6%
CCOc1ccc(OC(=O)NC(c2ccccc2)C(Cl)(Cl)Cl)cc1 (stereo not drawn),9%
CCOCCCn1c(=N)c(C(=O)NC2CCCC2)cc2c(=O)n3cc(C)ccc3nc21,-15%
COc1ccc(OC)c(NC(=O)CSc2nnc(CCCO)n2-c2ccccc2)c1,-6%
CCOC(=O)/C(=C\c1ccccc1)NC(=O)c1ccccc1,0%
Cc1ccc(CN2CCCC(CO)(Cc3ccccc3C)C2)s1 (stereo not drawn),-24%
CCn1c(CNC(=O)c2ccco2)nnc1SCC(=O)Nc1cc(C)c(C)cc1Br,1%
CCCN1C(=S)SC(C)(C)C1/[N+]([O-])=C/c1cccnc1 (stereo not drawn),-4%
CCOc1ccc(C2C(C(=O)c3ccc(C)o3)=C(O)C(=O)N2c2nc(C)c(C(=O)OC)s2)cc1 (stereo not drawn),?
COc1cc(C2CC(C(F)(F)F)n3ncc(C(=O)O)c3N2)cc(OC)c1OC (stereo not drawn),14%
CS(=O)(=O)c1ccc(-c2nc(-c3ccc(F)cc3)c(-c3ccncc3)[nH]2)cc1,-10%
NS(=O)(=O)c1ccc(NC(=O)CSc2nnc(-c3ccc(O)cc3)o2)cc1,0%
CCCc1cc(CN2CCOCC2)c(O)c(CN2CCOCC2)c1O,22µM*
COc1cccc(CNc2ncc(-c3ccc(Br)cc3)n2C)c1,12%
CCn1c(CN2CCN(c3ccc(OC)cc3)CC2)nc2cc(S(=O)(=O)N(C)C)ccc21,0%
COc1ccccc1CNC(=O)C1CCN(S(=O)(=O)c2c(C)noc2C)CC1,-3%
CCCC(=O)NCc1nc2cccnc2n1Cc1ccc(F)cc1,17%
C/C(=N\OC(=O)Nc1ccccc1)c1ccc(C)cc1,9%
Cc1cc(Br)c(OCc2ccc(C(=O)N/N=C3\CC4CC=CC34)cc2)c(Br)c1 (stereo not drawn),?
CCOc1ccc(CNC(=O)c2cccc(NC(=O)N3CCSc4ncccc43)c2)cc1,8%
O=C(Nc1cccc2cccnc12)c1ccc(Cl)cc1,-17%
CCN(CCCNC(=O)COc1cc(=O)n(C)c2ccccc12)c1ccccc1,-4%
N#C/C(=N/Nc1ccc(OC(F)(F)F)cc1)C(N)=S,-16%
COc1cccc(/C=N/NC(=O)CNC(=O)C2COc3ccccc3O2)c1O (stereo not drawn),-6%
Cc1cccc(Oc2ccc(S(=O)(=O)N3CCCCC3)cc2NC(=O)C2=COCCO2)c1,-11%
CCN1CCN(c2ncc(C(=O)Nc3c(F)cc(F)cc3Br)c3ccccc23)CC1,2%
CCN(C(=O)CSc1nnnn1-c1ccccc1)C1CCS(=O)(=O)C1 (stereo not drawn),4%
COc1ccc(CC(=O)O/N=C(\N)c2ccccn2)cc1,17%
Cc1ccc(N(CC(=O)N/N=C/c2cc(C)n(-c3ccccc3)c2C)S(C)(=O)=O)c(C)c1,0%
COCCn1c(=O)c(CCc2ccccc2)nc2cnc(N3CCOCC3)nc21,-22%
CCSC(=N)N,-4%&1%&3%
CCOc1ccc(N2CC(C(=O)NCCc3c[nH]c4ccc(C)cc34)CC2=O)cc1 (stereo not drawn),18%
C/C(CC(=O)Nc1ccc(F)cc1)=N\NC(=O)Cc1csc(N)n1,10%
COc1cccc(N2CCc3c(C)nc4ccc(Cl)cc4c32)c1,-21%
COc1ccc(Cl)cc1NC(=O)c1c(NCc2sccc2C)sc2c1CCCC2,18µM*
CC(=O)Nc1cccc(NS(=O)(=O)c2ccccc2[N+](=O)[O-])c1,9%
N/C(=N\OC(=O)CC1CCCCC1)c1cccnc1,-10%
CCC1CCCCN1C(=O)CN1C(=O)c2ccccc2S1(=O)=O (stereo not drawn),-5%
O=C(NCc1ccccn1)Nc1ccccc1,-16%
O=C(Nc1cccc(F)c1)c1cc(S(=O)(=O)N2CCOCC2)cs1,14%
COc1ccc(S(=O)(=O)c2c(N)n(Cc3ccco3)c3nc4ccccc4nc23)cc1,11%
NCCCn1c(C(=O)c2cc(Cl)c(N)c(Cl)c2)c2ccc(C(F)(F)F)cc2[n+]1[O-],-12%
CCCn1c(C(O)c2ccc(OC)cc2)nc2ccccc21 (stereo not drawn),-8%
CCC1CN(C(=O)NCc2ccccc2)c2cc(Cl)ccc2O1 (stereo not drawn),-23%&3%
Cc1ccc(NC2OC(CO)C(O)C2O)cc1[N+](=O)[O-] (stereo not drawn),-11%
CCOC(=O)c1ccccc1OCc1cc(/C=N/n2cnnc2)ccc1OC,5%
Cc1c(C=O)c(=O)n(-c2ccccc2)n1-c1ccccc1,-3%
Cc1sc2nc(CN(Cc3ccccc3)C(=O)NC3CCCCC3)[nH]c(=O)c2c1C,14%

With a hit mark in VDR inhibitor (from the list above):
Compound,VDR inhibitor
CCCc1cc(CN2CCOCC2)c(O)c(CN2CCOCC2)c1O,22µM*
COc1ccc(Cl)cc1NC(=O)c1c(NCc2sccc2C)sc2c1CCCC2,18µM*

4 of these compounds in another layout:
> CCN(C(=O)CSc1nnnn1-c1ccccc1)C1CCS(=O)(=O)C1 (stereo not drawn)
- VDR inhibitor: 4%
> COc1ccc(CC(=O)O/N=C(\N)c2ccccn2)cc1
- VDR inhibitor: 17%
> Cc1ccc(N(CC(=O)N/N=C/c2cc(C)n(-c3ccccc3)c2C)S(C)(=O)=O)c(C)c1
- VDR inhibitor: 0%
> COCCn1c(=O)c(CCc2ccccc2)nc2cnc(N3CCOCC3)nc21
- VDR inhibitor: -22%

The list continues:
Compound,VDR inhibitor
CN(Cc1ccccc1)c1nc(N)c([N+](=O)[O-])c(Nc2cccc(F)c2)n1,-4%
Cc1cccc(NC(=O)COC(=O)CNC(=O)C2CCCCC2)c1,14%
O=S(=O)(c1cccc(Br)c1)N1CCN(C(=S)NCC2CCCO2)CC1 (stereo not drawn),7%
C=CCC(C)(O)c1ccccc1 (stereo not drawn),6%
CCCC[C@@H](C)/C=C(C)/C=C(\C)C(=O)NC1=C[C@@](O)(/C=C/C=C/C=C/C(=O)NC2=C(O)CCC2=O)[C@@H]2O[C@@H]2C1=O,2.2µM*
Cc1cc(O)c(C(C)C)cc1NC(=S)Nc1cc(C(C)C)c(O)cc1C,?
CCOC(=O)/C(C#N)=C/C1=C(N2CCCC2)CC(C)(C)OC1,11%
CCN(c1ccccc1)S(=O)(=O)c1ccc(C(=O)Nc2nnc(COC)o2)cc1,12%
CCN(CC(=O)NCc1cccs1)C(=O)CCOc1ccccc1,1%
CC(C(=O)NCc1ccccn1)N1C(=O)c2ccccc2C1=O (stereo not drawn),11%
O=C(Cc1c(F)c(F)c(F)c(F)c1F)OC12CC3CC(C1)C(=O)C(C3)C2,-7%
Cc1ccccc1-n1c(-c2ccc(=O)[nH]n2)n[nH]c1=S,-2%
Cc1ccc(OCC(=O)NCCCNC(=O)c2ccco2)cc1C,8%
COc1ccc(C(C(=O)NCc2ccc(F)cc2)N(Cc2cccnc2)C(=O)c2snc(C(N)=O)c2N)cc1 (stereo not drawn),22%
CCc1ccc(-n2nc(C)c3c(C(=O)NCCc4ccc(OC)c(OC)c4)cc(C)nc32)cc1,-3%
COc1ccc(-c2nnc(SCC(=O)Nc3sc4c(c3C#N)CCCC4)n2-c2ccccc2)cc1,5%
c1nc(NCCN2CCOCC2)c2cc(-c3ccoc3)ccc2n1,45µM*
CC(=O)Nc1ccc(N(C(=O)Cn2nnc3ccccc32)C(C(=O)NC2CCCC2)c2ccc(O)c(O)c2)cc1 (stereo not drawn),12%
C=C1C(=O)O[C@@H]2[C@H]3O[C@]3(C)CCC=C(C)CC[C@@H]12,35µM*!
CC(Oc1ccc(Br)cc1)C(=O)Nc1ccncc1 (stereo not drawn),-1%
CC(OC(=O)c1cc(Br)ccc1O)C(=O)Nc1ccc(S(=O)(=O)N2CCCC2)cc1 (stereo not drawn),-12%
Clc1cccc(Cl)c1CNCCCSc1ncccn1,-18%
CC(C)Oc1ccccc1OCCCOc1cccc2cccnc12,-5%
C[C@H](CO)N1C[C@H](C)[C@@H](CN(C)Cc2ccncc2)Oc2c(NC(=O)Cc3ccccc3)cccc2C1=O,-9%
N#CCCN(CCC#N)S(=O)(=O)c1ccc(C(=O)Nc2nc(-c3ccccc3)c(C(=O)c3ccccc3)s2)cc1,-15%
